NPYLR7 agonist = activates Aedes aegypti NPYLR7 receptor; HEK293T NPYLR7/Galpha15, GCaMP6s calcium fluorescence; activation, % at 10 µM; 0.15% of 270,000 active; in the data active means activation above about 40%;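 further: 0% = vehicle and 100% = reference agonist at the receptor; some compounds past the cut are filed as inactive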
NPYLR7 agonist max-min = further read-out of NPYLR7 agonist, marked with its call; activation, %; measured here: Max-Min RFU normalised activation; some inactives read as strong as hits;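 span of the calcium signal over five minutes; 0% = vehicle and 100% = native peptide agonist; compound fluorescence can raise it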
An asterisk follows results filed as active; & = joins results of further samples. These rows are one share of the data; rates above refer to the full screens.

SMILES	NPYLR7 agonist	NPYLR7 agonist max-min
Cc1ccc2nccc(C(=O)N3CCCC(C(=O)c4cccc5ccccc45)C3)c2c1 (stereo not drawn)	14	2
CC(C)c1cc(C(=O)N2CCCC3(CCN(C)CC3)CC2)nc2ncnn12	1	-1
Cc1c(-c2cccc(NC(=O)Nc3cccc(Cl)c3)c2)nc2ncccn12	-1	2
CCCCn1c(N2CCN(Cc3cc(C)ccc3C)CC2)nc2c1c(=O)[nH]c(=O)n2C	0	-1
O=C(Cc1ccc(F)cc1)NCCn1nc(-c2cccs2)ccc1=O	5	2
CN1CCN2CCN(C(=O)c3cc(Cl)ccc3F)CC2C1=O (stereo not drawn)	11	7
COc1ccc2c(c1)CCc1c-2noc1-c1ccc(NC(=O)c2cc(F)c(F)c(F)c2F)cc1	2	-1
CNC(=S)NN=Cc1ccc(C)s1	6	4
CC1CC(Nc2ccccc2)c2ccccc2N1C(=O)c1ccc2c(c1)OCO2 (stereo not drawn)	-7	-14
Cc1c(C(=O)NCC(=O)NC(C)C)nnn1-c1cccc2cnccc12	0	-13
COc1c[nH]c(C(=O)N2CCC3(CCCO3)CC2)cc1=O	6	4
C/C(=C\c1ccco1)CN(C)Cc1nc(-c2ccccc2NS(C)(=O)=O)oc1C	19	8
Cc1cc2nnc(SCC(=O)Nc3ccc4c(c3)OCO4)n2c2ccccc12	-4	-8
COc1ccc(-n2nnc3c(SCC(N)=O)ncnc32)cc1	16	18
CCCn1c(N2CCN(Cc3ccc(Cl)cc3)CC2)nc2c1c(=O)[nH]c(=O)n2C	1	0
COc1ccccc1CCNC(=O)N1CCN2CCCCC2C1 (stereo not drawn)	-25	-24
OCC1(O)CCCN(Cc2cnc(-c3cccc4ccccc34)nc2)CC1 (stereo not drawn)	8	6
CCCCNc1nnc(SCC(=O)c2c(N)n(C3CC3)c(=O)[nH]c2=O)s1	4	3
O=C1/C(=C/c2ccc(Cl)cc2)C=C(c2ccccc2)N1c1ccccc1Cl	12	18
Cc1ccc(Cl)cc1-n1ccc2c(cnc3ncnn32)c1=O	1	5
Cc1ccc(-c2csc3ncn(CCC(=O)NCc4ccc(F)c(C)c4)c(=O)c23)cc1	-6	-10
CN=c1scc(-c2ccco2)n1N=Cc1cc(Br)ccc1O	-4	-3
COc1cccc(C(=O)N2CCN(c3cccc(Br)c3)C(=O)C2C)c1 (stereo not drawn)	3	17
COc1ccc(S(=O)(=O)N2CCOCC2)cc1N1CCN(C(=O)C2CCCCC2)CC1	7	7
Cc1cc(CSc2nnc(-c3ccc(C(C)(C)C)cc3)o2)no1	1	14
O=C(CCn1c(=O)sc2ccccc21)Nc1ccc(Oc2ccccc2)cc1	3	2
COc1ccc(F)c(CN2CCCC3(CCN(C(=O)c4cc(C)oc4C)C3)C2)c1 (stereo not drawn)	15	3
Cc1nn(C(=O)c2ccco2)c(C)c1Br	15	8
CCC(C)N(Cc1ccsc1)CC(O)COCc1ccccc1 (stereo not drawn)	18	14
CCCCN(CC(=O)Nc1cc(C(C)(C)C)nn1-c1ccccc1Cl)C(=O)C(C)Cl (stereo not drawn)	9	8
Cc1ccc(NCc2nsc(N(C)C)n2)c(F)c1	-7	-7
CC(C)N1CC=C2C(C#N)C(=N)C(C#N)(C#N)C(c3ccsc3)C2C1 (stereo not drawn)	15	19
NC(=O)C(c1ccccc1)N1CCC(NS(=O)(=O)c2ccc(F)cc2)CC1 (stereo not drawn)	13	8
Cc1ccc(-c2cc(CC(=O)O)no2)cc1	-2	-4
COc1cccc(C(=O)Nc2cc(-c3ccco3)nn2-c2nc(C)c(C)c(=O)[nH]2)c1OC	1	-1
CC(CC(F)(F)F)NCc1cnn(-c2cccc(F)c2)c1 (stereo not drawn)	0	-1
O=C1NCC(=O)N2C[C@H](NC(=O)C3(N4CCCCC4)CCCCC3)C[C@@H]12	2	0
Cc1nn(Cc2ccccc2Cl)c(C)c1CN(C)C(=O)C1CCCN(c2cnccn2)C1 (stereo not drawn)	0	5
CCn1c(C2CCN(C(=O)c3nc(C(C)C)cs3)CC2)n[nH]c1=O	20	16
COc1ccc(CCOC(=O)[C@@H]2CCCN2C(=O)c2c(-c3c(Cl)cccc3Cl)noc2C)cc1OC	-7	-12

In a second layout: results already given
structure | NPYLR7 agonist | NPYLR7 agonist max-min
CCCn1c(N2CCN(Cc3ccc(Cl)cc3)CC2)nc2c1c(=O)[nH]c(=O)n2C | 1 | 0
COc1ccccc1CCNC(=O)N1CCN2CCCCC2C1 (stereo not drawn) | -25 | -24
OCC1(O)CCCN(Cc2cnc(-c3cccc4ccccc34)nc2)CC1 (stereo not drawn) | 8 | 6
CCCCNc1nnc(SCC(=O)c2c(N)n(C3CC3)c(=O)[nH]c2=O)s1 | 4 | 3
O=C1/C(=C/c2ccc(Cl)cc2)C=C(c2ccccc2)N1c1ccccc1Cl | 12 | 18
Cc1ccc(Cl)cc1-n1ccc2c(cnc3ncnn32)c1=O | 1 | 5
Cc1ccc(-c2csc3ncn(CCC(=O)NCc4ccc(F)c(C)c4)c(=O)c23)cc1 | -6 | -10
CN=c1scc(-c2ccco2)n1N=Cc1cc(Br)ccc1O | -4 | -3
COc1cccc(C(=O)N2CCN(c3cccc(Br)c3)C(=O)C2C)c1 (stereo not drawn) | 3 | 17
COc1ccc(S(=O)(=O)N2CCOCC2)cc1N1CCN(C(=O)C2CCCCC2)CC1 | 7 | 7
Cc1cc(CSc2nnc(-c3ccc(C(C)(C)C)cc3)o2)no1 | 1 | 14
O=C(CCn1c(=O)sc2ccccc21)Nc1ccc(Oc2ccccc2)cc1 | 3 | 2
COc1ccc(F)c(CN2CCCC3(CCN(C(=O)c4cc(C)oc4C)C3)C2)c1 (stereo not drawn) | 15 | 3
Cc1nn(C(=O)c2ccco2)c(C)c1Br | 15 | 8
CCC(C)N(Cc1ccsc1)CC(O)COCc1ccccc1 (stereo not drawn) | 18 | 14
CCCCN(CC(=O)Nc1cc(C(C)(C)C)nn1-c1ccccc1Cl)C(=O)C(C)Cl (stereo not drawn) | 9 | 8
Cc1ccc(NCc2nsc(N(C)C)n2)c(F)c1 | -7 | -7
CC(C)N1CC=C2C(C#N)C(=N)C(C#N)(C#N)C(c3ccsc3)C2C1 (stereo not drawn) | 15 | 19
NC(=O)C(c1ccccc1)N1CCC(NS(=O)(=O)c2ccc(F)cc2)CC1 (stereo not drawn) | 13 | 8
Cc1ccc(-c2cc(CC(=O)O)no2)cc1 | -2 | -4
COc1cccc(C(=O)Nc2cc(-c3ccco3)nn2-c2nc(C)c(C)c(=O)[nH]2)c1OC | 1 | -1
CC(CC(F)(F)F)NCc1cnn(-c2cccc(F)c2)c1 (stereo not drawn) | 0 | -1
O=C1NCC(=O)N2C[C@H](NC(=O)C3(N4CCCCC4)CCCCC3)C[C@@H]12 | 2 | 0

Going on with the list.
SMILES	NPYLR7 agonist	NPYLR7 agonist max-min
CCN1C(=O)N(CCCc2cccnc2)C(=O)C12CCN(Cc1ccc(N3CCCC3)cc1)CC2	-2	-16
CCCC(=O)N1CCC1(C)C(=O)Nc1ccc(-n2cncn2)cc1 (stereo not drawn)	-2	-3
COc1ncc(CN2CCCN(CC3CC3)C(C(C)C)C2)cn1 (stereo not drawn)	-3	-11
CCOC(=O)c1c(NC(=O)CSc2nc3ccccc3o2)sc2c1CCCC2	0	-3
CCN(CC)c1ncnc2c1ncn2[C@H]1CN(Cc2ccccc2)C[C@@H](COC(C)=O)O1	4	12
N#Cc1cccc(OCc2ccc(S(=O)(=O)N3CCOCC3)o2)c1	2	2
COc1ccc(OCCSc2n[nH]c(=O)n2Cc2ccccc2)cc1	-1	-1
COc1nn(C)cc1C(=O)Nc1ccc(C(C)C)cc1	7	6
COc1cc(/C=N\n2cnnc2)c([N+](=O)[O-])cc1OCCC(C)C	0	0
CSc1ccc(C(=O)NCC(=O)NC(C)CC(C)C)cc1 (stereo not drawn)	-6	-8
Cc1cn2c3c(=O)n(Cc4ccc(Br)cc4)c(=O)n(C)c3nc2n1CCOCCO	10	8
CCOc1ncccc1CN1CCCC(C(=O)N2CCc3ccccc3C2)C1 (stereo not drawn)	-15	-21
CCN(CC)C(=O)Oc1ccc2c(ccn2Cc2cc(F)ccc2Br)c1-c1ccc(OC)c(OC)c1	23	13
Cc1ccc(CN(C)C(=O)NCc2ccc(C#N)cc2)s1	8	5
CC1(C(=O)NS(=O)(=O)c2cccc(Cl)c2)CCN1C(=O)Cc1ccc(Cl)cc1Cl (stereo not drawn)	6	1
COc1ccc(CCOC(=O)C2CCCCN2C(=O)CCC(=O)c2ccc(SC)cc2)cc1OC (stereo not drawn)	3	3
CCCC1CCCN(C(=O)Nc2ccc(N3CCOCC3)nc2)CC1 (stereo not drawn)	8	6
Cc1onc(-c2c(F)cccc2Cl)c1C(=O)NNC(=O)c1c[nH]c2ccccc12	9	9
CCCCCC(=O)NN=Cc1ccccc1	1	-3
O=C(COc1ccc(Cl)cc1)N1CCC(c2nc(-c3ccc(C(F)(F)F)cc3)no2)CC1	-1	2
COc1cccc(CCNC(=O)c2cccnc2Nc2cc(Cl)ccc2C)c1	-18	-23
CCCc1nc(CS(=O)(=O)C(C)c2nc(C(C)(C)C)no2)cs1 (stereo not drawn)	-2	4
CCOC(=O)C1(CC2CCCCO2)CCN(C(=O)NCCc2ccccc2)CC1 (stereo not drawn)	5	2
O=C(NC1CC(=O)N(Cc2ccccc2Cl)C1)C1CCOCC1 (stereo not drawn)	4	2
COc1cc(Cl)ccc1C(=O)NCc1cccnc1N(C)C	8	6
CCOC(=O)N1CCN(C(=O)CN2Cc3ccc(OC)cc3OC(C)C2)CC1 (stereo not drawn)	17	13
O=C(CCC1CCCC1)NCC#Cc1ccccc1	-3	-6
CCCOCCCNC(=O)c1cncn1-c1ccc(-c2cc(C(F)(F)F)cc(C(F)(F)F)c2)cc1	4	2
CCCC(=NCCCCCCN=C(CCC)C1=C(O)CCCC1=O)C1=C(O)CCCC1=O	2	2
CN(Cc1ccccc1)Cc1nc(C(c2ccccc2)c2ccccc2)no1	8	4
Cc1cn2c3c(=O)n(CC(=O)OCc4ccccc4)c(=O)n(C)c3nc2n1C(C)c1ccccc1 (stereo not drawn)	5	6
CCSc1nc2cc(Cl)ccc2c(=O)n1CCC(=O)O	3	-1
CCOc1ccccc1CN1CCN(Cc2cnn(C)c2C)CC1CCO (stereo not drawn)	-7	-8
CCOC(=O)C1(Cc2cccc(OC)c2)CCCN(S(=O)(=O)c2cccs2)C1 (stereo not drawn)	7	11
Clc1cc(CSc2nnc(-c3ccc4c(c3)OCO4)o2)cc2c1OCCO2	9	9
Cc1ccc(-c2cc3c(=O)n(CC(=O)Nc4ccccc4)ccn3n2)cc1	6	3
Cc1nc(N2CCN(S(=O)(=O)c3cccs3)CC2)cc(-n2cccn2)n1	-5	-11
COc1ccc(C(=O)NCc2ccccn2)cc1Oc1nc(Cc2ccc(F)cc2)ns1	11	13
CCCCSc1nc2c(c(=O)[nH]1)C(c1ccc(C(=O)OC)cc1)C(C(=O)OCC)C(C)=N2 (stereo not drawn)	-1	-2
C=C1c2ccccc2NC(=S)N1c1ccc(OC)cc1	1&3	0&1

The last two compounds of the section before come first, to join the parts.
SMILES	NPYLR7 agonist	NPYLR7 agonist max-min
CCCCSc1nc2c(c(=O)[nH]1)C(c1ccc(C(=O)OC)cc1)C(C(=O)OCC)C(C)=N2 (stereo not drawn)	-1	-2
C=C1c2ccccc2NC(=S)N1c1ccc(OC)cc1	1&3	0&1
COc1cccc(CNC(=O)C2CCN(c3nc4ccccc4o3)CC2)c1	19	10
CCc1ccc(C(=O)NCc2cccc(C(=O)Nc3ccncc3)c2)o1	4	2
C(=Cc1ccco1)c1nc2ccccc2[nH]1	-1	-4
COc1cccc(-c2ccc(SCC(=O)NC3CCCC3)nn2)c1	-1	-2
Cc1ccc(C)c(OCCN(C)C(=O)c2ccc3c(c2)OCC(=O)N3)c1	20	9
Cc1nccc(-c2cccc(NC(=O)C3CCC3)c2)n1	2	-1
O=C(NCCNC(=O)[C@H]1CCCN1C(=O)CCc1ccccc1)c1ccc(F)cc1	0	7
Cc1ccccc1Cn1c(NC2CCCC2)nc2c1c(=O)[nH]c(=O)n2C	4	1
CC(C)(C)C(=O)Nc1nc(-c2cccc(Br)c2)cs1	-23	-25
O=C(NCc1ccc2c(c1)OCO2)C1CC=CCC1C(=O)N1CCc2ccccc2C1 (stereo not drawn)	-8	-14
c1ccc(-c2noc(N3CCCC3)c2CNCc2ccco2)cc1	35	30
COc1cc2c(cc1NC(=O)CN1C(=O)c3ccccc3C1=O)oc1ccccc12	-6	-4
CCOC(=O)c1cc2c(=O)n3ccccc3nc2n(CC(C)C)c1=NC(=O)C(C)(C)C	2	1
C#CCNC(=O)c1csc(-c2cc(Br)cs2)n1	-1	-4
O=C(Cn1cnc2c(cnn2CCO)c1=O)N1N=C(c2cccs2)CC1c1ccc(F)cc1 (stereo not drawn)	14	6
COc1cc(CN2CCCN(C(C)=O)CC2)ccc1OCC(O)CN1CCCCCCC1 (stereo not drawn)	6	2
Cc1n[nH]c(C)c1CCC(=O)NN=Cc1c(O)ccc2ccccc12	-6	-10
O=C(NCCCN1CCOCC1)c1ccc(CSc2nc(Cl)cc(N3CCN(c4ccc(Cl)cc4)CC3)n2)cc1	-4	3
CCCCC(=O)Nc1nc(-c2ccc(CNC(C)=O)s2)cs1	12	6
CCOc1ccc2nc(N(CCCN(C)C)C(=O)c3ccc(Br)s3)sc2c1	4	3
Cn1c(CNC(=O)c2cccc(C3CCNC3)c2)nc2ccccc21 (stereo not drawn)	9	1
CC1CN(c2cc(Cl)nc(SCC(=O)N(CCC#N)Cc3cccnc3)n2)CCN1C(=O)C1CC1 (stereo not drawn)	26	25
CC1CN(S(=O)(=O)c2ccc(C(=O)C=C3N(C)c4ccccc4C3(C)C)cc2)CC(C)O1 (stereo not drawn)	-5	-7
CC1=C(C(=O)OCc2ccccc2)C(c2ccc(Cl)c(Cl)c2)NC(=O)N1C (stereo not drawn)	7	9
CCOc1ccc(NC(=O)N(CC(=O)N(CCc2ccc(OC)c(OC)c2)Cc2ccco2)C(C)CC)cc1 (stereo not drawn)	-3	1
CCCc1nnc(-c2cc3ccccc3n2CCC)o1	0	-1
Cc1c(CN2CCC(Oc3ccccc3C(=O)N3CCCCC3)CC2)[nH]c2c(C)cccc12	3	-1
Cc1ccc(-c2n[nH]c(=S)n2CC(=O)NC(C)c2ccc(F)c(F)c2)cc1 (stereo not drawn)	1	5
